Bioassay records as filed in PubChem BioAssay.
Menin MLL FP FL: menin-MLL binding inhibition, fluorescein peptide. FP activity change, % at 61.4 µM. Fluorescence polarization, fluorescein-MLL peptide displacement from menin. 290,000 tested, under 10 active; inconclusive = falling polarisation curve, or a change in total fluorescence; inactive = total fluorescence flat and polarisation flat or rising; no compound was filed as active; the % refers to the polarisation; negative = inhibition;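 also: % of control where 0% means no effect; inhibitors lower the polarisation; unlabelled MLL peptide was the positive control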
TRPML1 blocker: blocks the human TRPML1 channel; Q9GZU1; TRPML1-inducible cells, Ca2+ dye fluorescence, FDSS; active compounds read low; inhibition of EC80 agonist-evoked calcium signal; 390,000 compounds, 0.02% hits; activity change, negative = inhibition, % (test concentration not listed); AID 624415; in the data active means activity change below about -50%; inconclusive means about -30% to -50%; inactive means above about -30%;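 also: stimulus is agonist 54-4 at its EC80 concentration; % is scaled to controls: 0 for no effect and ±100 for the full control effect; compound concentration not given in the record; the text of the record puts the active cut at -80%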
Target sequence (Q9GZU1 whole entry, looked up): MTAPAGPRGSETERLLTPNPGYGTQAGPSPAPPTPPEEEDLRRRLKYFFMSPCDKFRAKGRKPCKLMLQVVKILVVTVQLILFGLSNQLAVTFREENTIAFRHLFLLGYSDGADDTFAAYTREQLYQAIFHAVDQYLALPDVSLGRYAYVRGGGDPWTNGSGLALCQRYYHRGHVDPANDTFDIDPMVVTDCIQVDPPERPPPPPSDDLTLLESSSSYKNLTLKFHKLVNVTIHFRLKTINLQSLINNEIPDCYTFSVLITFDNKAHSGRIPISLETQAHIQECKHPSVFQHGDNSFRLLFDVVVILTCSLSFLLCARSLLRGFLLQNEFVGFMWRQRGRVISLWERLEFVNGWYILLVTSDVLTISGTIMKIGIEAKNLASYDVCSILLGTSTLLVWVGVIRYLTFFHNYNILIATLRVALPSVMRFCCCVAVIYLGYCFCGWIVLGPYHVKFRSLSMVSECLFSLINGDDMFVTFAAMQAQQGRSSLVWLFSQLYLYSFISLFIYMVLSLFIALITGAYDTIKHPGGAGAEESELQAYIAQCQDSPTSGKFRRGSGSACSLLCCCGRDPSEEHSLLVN
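TRPML1-DL cells, Tet-induced overnight (~16 h, 37 °C) at 1,500 cells/well, were loaded with Ca8 no-wash dye plus quencher for 45-90 min at room temperature. Compounds were pinned during FDSS kinetic reading; agonist 54-4 at EC80 (4 uM final) then added.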
TRPV1 potentiator: enhances activation of the human vanilloid receptor TRPV1. TRPV1-expressing cells, Fluo-8 calcium influx, capsaicin EC20 potentiation; host cell line not named in the record; control for the full effect not named in the record. potentiation, % at 8.33 µM. 320,000 compounds, 0.02% hits; active means potentiation above 80%; inconclusive means 30% to 80%; inactive means below 30%; also: 0% is about no effect
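Fluo-8 calcium influx in TRPV1-expressing cells, kinetic read (ex 480/em 520 nm). Compound added and read 3 min for agonist activity, followed by capsaicin at EC20 final and 2 min further read for enhancement.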
Sfp inh: blocks B. subtilis Sfp PPTase activity | AID 1490 | 310,000 compounds, 3.5% hits | Potency, µM, for the others: max response, negative = inhibition, most hits filed as inhibitors | Biochemical Sfp PPTase activity, qHTS | Q9F4F7; active = well fitted inhibition curve with a large enough effect; inconclusive = small, poorly fitted or top-dose-only effect, or another doubt; inactive = no such curve, though single readings can be large or run the other way;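 also: the enzyme is Sfp with the accession as filed and its product quenches rhodamine fluorescence; potency is read from the fitted curve at half-maximal effect; 0% = enzyme reaction without inhibitor and -100% = no enzyme wells; top concentration of the series not given in the record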
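Fluorescence-quenching assay with 15 nM Sfp, 5 uM rhodamine-CoA and 12.5 uM BHQ-2-labelled ybbR peptide in pH 7.6 Hepes/MgCl2 buffer. Enzyme was pre-incubated with compound for 15 min at room temperature. Rate was taken from the 30-min fluorescence change (525/598 nm).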
ClpP mod: qHTS Assay for Activators of ClpP; purified B. subtilis ClpP, FRET peptide cleavage, 20 min; 340,000 compounds, 1.9% hits; Potency, µM (top dose mostly 57.5 µM), for inactives: top-dose activity change, negative = active; ATP-dependent Clp protease proteolytic subunit (Bacillus subtilis (strain 168)), P80244; AID 651965, 2013; active = well fitted falling curve with a large enough effect; inconclusive = small, poorly fitted or top-dose-only effect; inactive = no such curve, though single readings can be large or run the other way; also: potency is read from the fitted curve at half-maximal effect; the source files actives as falling curves though it sought activators and does not explain the sign; nearly all actives have a fitted effect of over 65% in size; many hits overshoot -100%
Target sequence (P80244 whole entry, looked up): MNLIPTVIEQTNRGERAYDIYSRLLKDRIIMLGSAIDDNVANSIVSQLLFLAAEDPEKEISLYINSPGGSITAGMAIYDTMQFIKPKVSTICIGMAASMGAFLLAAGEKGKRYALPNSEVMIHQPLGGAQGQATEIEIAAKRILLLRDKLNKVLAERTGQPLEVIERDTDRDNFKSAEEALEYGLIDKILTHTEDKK
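Purified B. subtilis ClpP, 10 microg/mL final in Tris/HCl pH8 with KCl, BSA, glycerol and Tween-20, cleaved an Abz/nitrotyrosine-quenched decapeptide. Fluorescence (ex 320, em 430) was read at 0 and 20 min at room temperature. Delta was normalized to 5.8 microM ADEP and DMSO/no-enzyme controls.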
gsp agonist: activates gsp, the McCune-Albright syndrome mutation. gsp mutant cells, cAMP HTRF, 30 min; control for the full effect not named in the record. Potency, µM (highest dose often 76.9 µM), without a hit: top-dose activation (cAMP increase), most hits filed as activators. 340,000 compounds, 0.13% hits. AID 624287; active = well fitted activation curve with a large enough effect; inconclusive = small, poorly fitted or top-dose-only effect, or another doubt; inactive = no such curve, though single readings can be large or run the other way; cell line not stated here;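 also: phosphodiesterase inhibitor Ro 20-1724 added with compounds to block cAMP breakdown; potency is read from the fitted curve at half-maximal effect; nearly all actives have a fitted effect of over 60% in size; about a fifth of the inactives were tested at one dose only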
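Cells stably selected in G418 were plated at 2000/well, grown 16-24 hr, then given compounds in DMSO with the PDE inhibitor […] (300 uM solution added) for 30 min at 37C; cAMP was read by HTRF.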
gsp antagonist: antagonists of gsp mutant (McCune-Albright syndrome). gsp-mutant cells, cAMP HTRF, 30 min; control for the full effect not named in the record. Potency, µM (highest dose often 76.9 µM), for the others: at the highest dose activity change, negative = inhibition, actives largely listed as inhibitors. 340,000 compounds, 0.4% hits. AID 624288; active = falling curve of any shape with a large fitted effect; inconclusive = falling curve, mostly with a smaller effect; inactive = flat or rising curve; cell line not stated here;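 also: intracellular cAMP measured with PDE inhibitor Ro 20-1724 present during compound exposure; potency is read from the fitted curve at half-maximal effect; % is scaled to controls: 0 for no effect and ±100 for the full control effect; nearly all actives have a fitted effect of over 65% in size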
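Cells, 2000/well, grown 16–24 h in DMEM 10% FBS with 0.5 mg/ml G418, then compounds plus […] (300 uM addition stock), 30 min at 37C. cAMP read by HTRF (cAMP-d2 and anti-cAMP antibody-K in lysis buffer) after 30 min RT.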
* = called active by the depositor; ? = inconclusive; nt = not tested or not shown; & = joins results of further samples; [ ] = another dose, or the depositor's remark.

SMILES	ClpP mod	gsp antagonist	TRPML1 blocker	gsp agonist	TRPV1 potentiator	Sfp inh	Menin MLL FP FL
COc1ccc(OC)c2sc(NC(=O)C3CC3)nc12	-3.5%	-0.6%	2.0	-25.9%	-21.1	-1.7%	-2.1
O=C(c1cc(Br)ccc1OC(F)F)N1CCN2CCCC2C1 (stereo not drawn)	0.7%	8.1%	0.7	-3.1%	-0.7	nt	nt
CN(C)C1=NC(=O)/C(=C/c2ccc(-c3ccc(S(N)(=O)=O)cc3)o2)S1	nt	nt	nt	nt	9.0	35.5µM*	?
CSCC[C@H](NC(=O)Nc1cccc(C(F)(F)F)c1)C(=O)O	-14.5%	10.0%	-2.1	-14.0%	-6.2	14.5%	3.9
COc1ccc(/C=C2\CCn3c2nc2cc(C(=O)O)ccc2c3=O)cc1	-12.3%	-23.4%	-10.0	-19.0%	3.6	16.2%	1.4
Nc1ccc(C(=O)N/N=C/c2cn(Cc3cccc(F)c3)c3ccccc23)cc1	-20.4%	3.3%	-9.9	-1.4%[15.4 µM]	2.0	-5.2%	-7.2
O=C1OC(Oc2ccccc2)(c2ccccc2)c2ccccc21 (stereo not drawn)	-3.6%	-17.9%	63.9	-19.4%	-15.8	-5.3%	0.1
c1ccc(-c2sc3ccccc3c2-c2ccc(OCCN3CCCC3)cc2)cc1	?	4.9%	-6.1	nt	nt	nt	nt
CCOC(=O)C1C2C=CC3(CN(Cc4cccs4)C(=O)C13)O2 (stereo not drawn)	0.4%	3.8%	0.6	-0.6%	12.7	11.7%	0.1
CC1(C)Oc2ccc3ccc(=O)oc3c2C(/C=N/O)C1=O (stereo not drawn)	3.6%	1.5%	-18.0	3.0%	-1.2	11.3%	1.9
CCN(CC)S(=O)(=O)c1cc([N+](=O)[O-])ccc1N=Nc1c(O)n(C)c2ccccc12	0.6%	13.1%	3.9	-48.4%[inhibitor]	-6.8	22.9%	1.3
O=Cc1c(Cl)cccc1Cl	-0.4%	-0.9%	0.6	nt	-6.6	0.5%	?
COc1ccc2[nH]c3c(c2c1)CCN1C(=O)N([C@@H](C)C(=O)NC2CC2)C(=O)[C@]31C	-7.0%	-6.3%	nt	nt	-8.0	6.5%	4.0
O=C(OCc1cc(Cl)ccc1OC(F)F)c1cccnc1	nt	-0.6%	-1.4	1.8%[15.4 µM]	-1.2	5.2%	0.7
COc1ccc(C(=O)Nc2cc(C(C)=O)c(/C=C/N(C)C)oc2=O)cc1	1.1%	-20.9%	-10.5	?	0.8	12.3%	?
CC(C)=NNc1nc(-c2ccc(N3C(=O)CCC3=O)cc2)cs1	nt	6.8%	3.0	5.9%[15.4 µM]	-3.0	20µM*	2.8
CC(=O)n1cc(/C=C2/N=C(c3ccccc3)OC2=O)c2ccccc21	-2.4%	3.7%	21.5	-10.4%	11.4	-2.7%	11.9
COc1ccc(OC)c2sc(N3CCN(c4ccccc4)CC3)nc12	-2.4%	4.1%	-12.0	-35.0%[inhibitor]	nt	nt	nt
COC(=O)CSC1=C(C#N)C(c2cccc(OC)c2)CC(=O)N1 (stereo not drawn)	0.9%	8.1%	-7.5	-2.9%	13.0	2.3%	1.2
CCOC(=O)C1=C(C)NC(=O)NC1c1cccs1 (stereo not drawn)	nt	-0.2%	16.1	15.9%	-0.5	3.0%	4.1
CC[C@]12c3[nH]c4cc(-c5ccco5)ccc4c3CCN1C(=O)[C@@H](CC(=O)NCCCOC)C[C@@H]2C(=O)N1CCN(C(=O)c2ccco2)CC1	-11.3%	-27.8%	15.4	nt	nt	nt	nt
COc1cccc(C(=O)NCCS(=O)(=O)N2CCC3(CC2)OCCO3)c1	-29.8%	14.8%	0.8	-3.8%[15.4 µM]	16.4	nt	nt
Nc1c(C(=O)Nc2nc3ccccc3s2)sc2nc(-c3cccs3)ccc12	0.0%	3.9%	-0.8	?	-8.1	?	?
Cc1cc(C)c2[nH]c(=O)c(C(c3nnnn3Cc3ccc4c(c3)OCO4)N3CCCCC3)cc2c1 (stereo not drawn)	-7.9%	5.0%	-4.0	14.6%	6.6	-9.9%	3.3

Quoted at random: 3 compounds from above
SMILES	ClpP mod	gsp antagonist	TRPML1 blocker	gsp agonist	TRPV1 potentiator	Sfp inh	Menin MLL FP FL
COc1cccc(C(=O)NCCS(=O)(=O)N2CCC3(CC2)OCCO3)c1	-29.8%	14.8%	0.8	-3.8%[15.4 µM]	16.4	nt	nt
Cc1cc(C)c2[nH]c(=O)c(C(c3nnnn3Cc3ccc4c(c3)OCO4)N3CCCCC3)cc2c1 (stereo not drawn)	-7.9%	5.0%	-4.0	14.6%	6.6	-9.9%	3.3
COC(=O)CSC1=C(C#N)C(c2cccc(OC)c2)CC(=O)N1 (stereo not drawn)	0.9%	8.1%	-7.5	-2.9%	13.0	2.3%	1.2

(more compounds)
SMILES	ClpP mod	gsp antagonist	TRPML1 blocker	gsp agonist	TRPV1 potentiator	Sfp inh	Menin MLL FP FL
COc1ccc(/C=C/C(=O)Oc2ccc(/C=N/NC(=O)COc3c(C)cccc3C)cc2)cc1	nt	nt	nt	nt	-1.7	9.7%	0.0
Cc1ccccc1/C=C1\SC(=S)N(/N=C/c2cc([N+](=O)[O-])ccc2O)C1=O	nt	?	-14.3	-33.4%[inhibitor]	5.1	-13.6%	9.9
O=[N+]([O-])c1ccc(Nc2ccccc2)nc1	0.5%	-0.7%	-20.8	0.0%	-7.6	3.1%	2.2
O=C(Nc1ccccc1)N(CCCN1CCOCC1)Cc1ccccc1F	-2.0%	3.1%	6.3	-25.6%	-9.9	-5.1%	-0.4
COc1cccc(CCNC(=O)c2cccc(NC(=O)C3=C(C)OCCS3)c2)c1	-1.1%	0.2%	31.5	2.7%	17.3	4.0%	-4.7
O=C(CNC(=O)c1ccc(Br)o1)Nc1ccc(F)c(S(=O)(=O)N2CCOCC2)c1	-1.6%	-23.8%	-6.1	16.2%	4.7	nt	nt
CC1CN(C(=S)c2cccc([N+](=O)[O-])c2)CC(C)O1 (stereo not drawn)	nt	1.3%	20.4	-1.1%[15.4 µM]	10.3	50.1µM*	-0.4
O=C(Nc1ccccn1)c1cccc(S(=O)(=O)N2CCCCC2)c1	-0.9%	-2.5%	15.7	20.7%	6.2	-9.4%	4.6
Cc1cc2ncc(S(=O)(=O)c3ccccc3)c(N)n2n1	-5.8%	5.7%	2.2	-19.9%[15.4 µM]	21.4	2.2%	-0.3
COc1ccc(C(C(=O)NCC2CCCO2)N(C(=O)CNC(=O)c2cccs2)c2ccccc2C)cc1OC (stereo not drawn)	nt	3.6%	-18.3	-13.7%	3.1	18.4%	0.0
CCCc1nc(C)c(-c2ccc(OC)c(OC)c2)c(=O)[nH]1	-1.7%	10.7%	-4.0	7.4%	-7.4	2.5%	-4.7
COc1ccc(C(=O)NCC(=O)N2CCN(c3ccccc3)CC2)cc1	nt	21.5%	-0.2	-6.0%[15.4 µM]	-2.1	9.3%	3.3
CCc1cc2c(=O)c(-c3nc4ccccc4n3C)coc2c(CN2CCCC(C)C2)c1O (stereo not drawn)	1.1%	1.7%	-29.6	-2.8%[15.4 µM]	-1.7	6.7%	-10.7
CCOC(=O)c1cccc(NC(=O)CCc2nc(-c3ccccc3F)no2)c1	0.6%	-14.9%	-9.7	-17.7%	2.2	9.5%	3.0
CC(OC(=O)c1cc2c(s1)CCCCC2)C(=O)NC(N)=O (stereo not drawn)	nt	-2.0%	-2.4	8.3%	-7.0	0.2%	2.4
CCOc1ccc(N2C(=O)CC(NC3CCN(C(=O)c4cccc(Cl)c4)CC3)C2=O)cc1 (stereo not drawn)	0.6%	-0.4%	35.5	10.5%	18.5	6.9%	nt
Cn1c(=O)[nH]c(=O)c2c1ncn2CCN1CCCCC1	0.0%	1.9%	-8.1	1.6%	-7.0	6.6%	1.3
Cc1cc(S(=O)(=O)N2CCCC2)ccc1OCC(=O)Nc1ccc(C(N)=O)cc1	-0.3%	-6.4%	-5.0	0.6%	2.6	nt	nt
COC(=O)c1ccc(CN2C(=O)c3ccccc3S2(=O)=O)cc1	0.3%	-3.9%	4.0	-8.5%	0.5	2.4%	1.3
O=C(Nc1cccnc1)C1CC(c2ccc(Cl)c(Cl)c2)=NO1 (stereo not drawn)	-2.3%	-19.3%	17.8	-13.5%	-17.3	9.4%	0.8
Cc1ccc(NC(=O)CSc2nc(C)c(Cc3ccccc3)c(=O)[nH]2)cc1	-1.4%	-28.7%	-1.1&-11.8	0.8%[15.4 µM]	-0.5	12.2%	2.7
COc1cc(-c2nnc(COC(=O)c3cccn3C)o2)cc(OC)c1OC	-5.9%	10.2%	-3.4	7.0%[15.4 µM]	nt	nt	nt
COc1ccccc1C(=O)N1CCN(Cc2c[nH]c3ccccc23)CC1	nt	17.7%	9.7	-6.1%	1.3	-21.1%	-4.3
COc1cc(CNC(C)C)ccc1OCC(=O)Nc1cccc2ccccc12	8.4%	7.3%	1.7	?	0.1	14.9%	nt
